H5N1 CPE: MDCK cell protection from H5N1 avian flu; cytopathic effect, luminescence, 72 h; hits give high values; no value below 0 was filed and about half of the inactive calls have no number; reference of the scale not given here; inhibition, % at 50 µM; 96,000 compounds, 0.07% hits; AID 740; in the data active = inhibition above about 25%
Active calls of the source: *; i = inactive.

SMILES | H5N1 CPE
COc1ccc(S(=O)(=O)N(Cc2cc3ccc(OC)cc3[nH]c2=O)CC2COCCO2)cc1 (stereo unspecified) | 0.8
Cc1nn2c(=O)cc(CSc3nc4ccccc4[nH]3)nc2s1 | i
O=C(O)CC(c1ccc(Cl)cc1)N1C(=O)CCC1=O (stereo unspecified) | i
COc1ccc(C2=NO[C@@H]3C(=O)N(c4ccc(C)cc4C)C(=O)[C@H]23)cc1OC | i
CCOC(=O)c1ccc(NC(=O)C2CCCN(S(=O)(=O)c3cnc[nH]3)C2)cc1 (stereo unspecified) | 0.7
CCN(CC)S(=O)(=O)c1ccc(Oc2ccc(S(=O)(=O)N(CC)CC)cc2)cc1 | 8.0
Cc1ccc(C(=O)c2c(NC(=O)c3ccncc3)sc3c2CCCC3)cc1 | 3.7
Nc1nnc(SCCN2C(=O)c3ccccc3S2(=O)=O)s1 | 2.0
CN(C)/C=N/c1ncnc2c1cnn2-c1ccc(C(F)(F)F)cn1 | i
CC(C)CCn1c(SCC(=O)N2CC(=O)Nc3ccccc32)nc2scc(-c3cccs3)c2c1=O | i
COc1ccccc1N1CCN(C(=O)c2cc3c(=O)n(C)c4ccccc4c3n2C)CC1 | i
CC(C)(C)NC(=O)Nc1ccc2nccnc2c1 | 1.8
COc1cc(OC)c(OC)cc1CNc1cc(C)ccc1OC | 3.4
O=C(CSc1nnc(-c2cccs2)o1)c1cccs1 | 1.0
COc1ccc(C(=S)N2CCNCC2)cc1 | 1.6
COc1ccccc1C1CC(=O)NC(SCC(=O)Nc2ccccc2)=C1C#N (stereo unspecified) | 4.2
COc1cc2c(cc1O)CCN(C(=O)c1ccco1)C2C (stereo unspecified) | 0.4
Cc1cccc(N2CCN(C(=O)Cn3sc4nc(C)cc(C)c4c3=O)CC2C)c1 (stereo unspecified) | 1.5
COC(=O)CSc1[nH]c(=O)cc(C)c1C#N | i
Cc1occc1C(=O)NC(C)C1CCCO1 (stereo unspecified) | i
CN(C)S(=O)(=O)NC(c1ccccc1)c1ccccc1 | 0.7
CCOc1ccc2c(c1)n(CO)c(=S)n2CO | 1.4
Cc1nnc(SCc2ccc3c(c2)OCO3)s1 | 0.7
Cc1noc(C)c1COC(=O)c1cc2ccccc2cc1O | 0.1
S=C(NCc1cccnc1)Nc1cccc(Cl)c1 | 0.0
Cc1c(N=Cc2c(O)n(Cc3ccc(F)cc3)c(=O)[nH]c2=O)c(=O)n(-c2ccccc2)n1C | i
CCOC(=O)CSc1nc2cc(OCC)ccc2cc1C#N | 0.9
CC(C)N=C1SCC(C)(/C=N/O)S1 (stereo unspecified) | i
CC(C)Cn1cnc2c(=O)oc3ccccc3c21 | 0.1
Cc1sc2nc(CN3CCOCC3)nc(N3CCOCC3)c2c1C | i
Cc1ccc(S(=O)(=O)N2CCN(C(=O)C3=COCCO3)CC2)cc1C | 1.0
Cc1nc2cc(NC(=O)N3c4ccccc4CC3C)ccc2o1 (stereo unspecified) | i
COn1c(SC2CCCCC2)nc2ccccc2c1=O | 0.6
C=CCNC(=O)c1ccccc1NC(=O)c1ccccc1 | i
Cc1ccc(S(=O)(=O)c2n[nH]n3c2nc(=O)c2ccccc23)cc1 | i
Cc1[nH]nc2c1C1(CCC(c3ccccc3)CC1)C(C#N)=C(N)O2 (stereo unspecified) | 1.2
O=C(O)c1ccc2c(c1)C(=O)N(Cc1ccccc1)C2=O | 1.1
Cc1ccc2nc3sc(-c4nnc(-c5ccccc5[N+](=O)[O-])o4)c(N)c3cc2c1 | 0.4
CCCN1CCN(C(=O)Nc2ccc(C(=O)OCC)cc2)CC1 | i
CSc1n[nH]c(NC(C)=O)n1 | i
Cc1cc(C)cc(N2C(=O)N(c3ccccc3C)C3CS(=O)(=O)CC32)c1 (stereo unspecified) | i
CCN(c1cccc(C)c1)c1nc2ccsc2c(=O)s1 | 0.2
Cc1cc(C)nc(NS(=O)(=O)c2ccc(N/C=C\C(=O)c3ccc(Cl)cc3)cc2)n1 | i
CC(OC(=O)CNC(=O)C12CC3CC(CC(C3)C1)C2)C(=O)Nc1ncc(Cl)cc1Cl (stereo unspecified) | 0.9
COc1ccc(Nc2nc(-c3ccccc3)cs2)cc1 | i
CN(C)c1ccc(/C=N/NC(=S)NCc2ccccc2)cc1 | i
COc1ccc(-c2nc(C#N)c(N3CCc4ccccc4C3)o2)cc1OC | 0.1
COc1ccccc1-n1c(SCC(=O)NC(C)(C)C)nc(O)c(Cc2ccccc2)c1=O | i
CCS(=O)(=O)NCC(c1cccnc1)N1CCN(c2ccccc2F)CC1 (stereo unspecified) | i
O=C(O)Cn1c(CC(=O)N2CCCC2)nc2ccccc21 | i

Quoted at random: two entries already listed.
SMILES | H5N1 CPE
CC(OC(=O)CNC(=O)C12CC3CC(CC(C3)C1)C2)C(=O)Nc1ncc(Cl)cc1Cl (stereo unspecified) | 0.9
COc1ccc(-c2nc(C#N)c(N3CCc4ccccc4C3)o2)cc1OC | 0.1

(list continues)
SMILES | H5N1 CPE
O=C(/C=C/c1c(Cl)cccc1Cl)NCCc1ccccc1 | i
CN(C)S(=O)(=O)c1ccc(NC(=O)CN2CCN(C(c3ccccc3)c3ccccc3)CC2)cc1 | 0.6
CCOc1ccc(Nc2oc(-c3ccccc3Cl)nc2C#N)cc1 | i
CCc1c(O)nc(SCC(=O)NCc2ccco2)[nH]c1=O | i
COc1cc2c(cc1OC)-c1cc(OCc3cccnc3)nc(=O)n1CC2 | 0.3
CCn1cnc2cc(NCc3ccc(OC)cc3)ccc21 | 0.4
O=C(CSc1ccc2nnc(-c3cccc(F)c3)n2n1)NCC1CCCO1 (stereo unspecified) | 1.1
Cc1ccc(Cc2cncc(O)c2)cc1S(=O)(=O)O | 1.1
COc1ccc(C(=O)N2CC(=O)N(CCc3ccccc3)C(=O)C2)cc1OC | i
CSc1sc(C(=O)O)c(C)c1C(C)=O | i
CCCCC(=O)Nc1ccc(NC(=O)C(C)C)cn1 | 0.3
COc1ccc(CC(=O)OCC(=O)Nc2ncc(Cl)cc2Cl)cc1 | i
CCN(CC)S(=O)(=O)c1ccc(S(=O)(=O)Nc2ccc(C(=O)N3CCCC3)cc2)cc1 | 1.6
COC(=O)CSc1nnc(CNc2ccc(OC)cc2)n1C | i
COc1ccc(OC)c(NC(=O)c2cc(-c3cc(Cl)ccc3O)n[nH]2)c1 | i
Nc1nnc(-c2ccc(F)cc2)s1 | i
O=C(O)CCCC(=O)Nc1cccc(-c2nc3ccccc3[nH]2)c1 | i
CC(C)(C)NC(=O)c1ccc(COCC(F)(F)F)o1 | 0.5
CC(=O)N/C(=C/c1ccc(Cl)cc1)C(=O)NCCc1c[nH]c2ccccc12 | 1.2
Cc1nc2sccn2c1-c1csc(NCc2ccccc2)n1 | i
COC(=O)c1ccc(CSc2nnc(Nc3ccc(OC)cc3)s2)o1 | i
O=C(NC1CCCCCC1)C1c2ccccc2C(=O)N1Cc1ccco1 (stereo unspecified) | 0.7
O=C(CN(Cc1ccco1)C(=O)Cn1nnc(-c2cccs2)n1)NCc1ccccc1 | i
COC(=O)c1cnn(-c2ccc(C)c(C)c2)c1-n1cccc1 | i
CC(C)CCC(C(=O)O)C(C)CC(=O)NC1CCCCC1 (stereo unspecified) | 1.3
CCOCCCn1c(=NC(=O)c2ccc(OC)c(OC)c2)c(C#N)cc2c(=O)n3cccc(C)c3nc21 | i
Cc1cc(C)n(CCn2nc(C)cc2C)n1 | 0.7
CCc1ccc(-c2cc(C(=O)NCc3ccco3)c3ccccc3n2)s1 | 1.0
Cc1ccc(/C=C2\Sc3ccccc3C2=O)s1 | i
CCOc1c(OC)ccc2c3c(c(=O)oc12)CCCC3 | 1.0

Overlap with the part before: 5 compounds, followed by the next part.
SMILES | H5N1 CPE
CCOCCCn1c(=NC(=O)c2ccc(OC)c(OC)c2)c(C#N)cc2c(=O)n3cccc(C)c3nc21 | i
Cc1cc(C)n(CCn2nc(C)cc2C)n1 | 0.7
CCc1ccc(-c2cc(C(=O)NCc3ccco3)c3ccccc3n2)s1 | 1.0
Cc1ccc(/C=C2\Sc3ccccc3C2=O)s1 | i
CCOc1c(OC)ccc2c3c(c(=O)oc12)CCCC3 | 1.0
C/C=C(\C)CN1CCN(c2ccc(C)cc2)CC1 | 0.9
O=C(NCCN1CCOCC1)c1cc(-c2ccccc2)on1 | i
CCSc1nc(N2CCOCC2)c2c(c1C#N)CCCC2 | 0.5
Cc1ccc(C)c(NC(=O)C2CC3c4ccccc4C2c2ccccc23)c1 (stereo unspecified) | i
CCOC(=O)C1C(=O)CC(C)(O)C(C(=O)OCC)C1c1ccccc1OC (stereo unspecified) | 0.4
O=[N+]([O-])c1cc(C(F)(F)F)ccc1N1CCN(S(=O)(=O)c2ccc3ccccc3c2)CC1 | 1.4
CN1CCN(c2ccc([N+](=O)[O-])c(N/N=C3\CN4CCC3CC4)c2)CC1 | 0.3
O=C1C(=O)N(CCN2CCOCC2)C(c2ccccn2)/C1=C(/O)c1ccc(Cl)cc1 (stereo unspecified) | i
Cc1cc(N2CCCCC2)nc(SCC(=O)c2ccccc2)n1 | 1.1
C=CCn1c(SCC(=O)c2cc(C)n(C(C)COC)c2C)nc2sc(C)c(C)c2c1=O (stereo unspecified) | 0.9
CC(C)C1=NN2C(=N)CC(=O)N=C2S1 | i
O=C(Nc1ccccc1F)c1ccncc1 | i
COc1ccc(C(=O)COC(=O)CCn2nnc(-c3cccc(O)c3OC)n2)cc1 | 0.5
CC(O)COc1ccc(/C(=N/O)c2ccccc2)cc1 (stereo unspecified) | i
CC1(C)Cc2c(C#N)c(SCC(=O)c3ccccc3)nc(N3CCOCC3)c2CO1 | i
CSC1=NCCN1C(=O)Cc1ccc(Cl)cc1 | 5.4
CN1C(=O)/C(=C/c2ccccc2OCc2cccc(F)c2)NC1=S | 0.1
CCS(=O)(=O)c1ccc2c(c1)N(S(C)(=O)=O)CC(C(=O)NCCOC)O2 (stereo unspecified) | i
O=C(NNC(=O)c1cc2cc3ccccc3nc2s1)c1cccc(Cl)c1 | i
O=C(O)C1CCN(S(=O)(=O)/C=C/c2ccccc2)CC1 | i
CCOC(=O)c1cnc2c(C(F)(F)F)cccc2c1N1CCOCC1 | 1.3
CC(=O)c1c(C)c2c(n1CCN(C)C)CCCC2 | 0.1
COc1ccc(S(=O)(=O)NCCSCc2ccccc2C)cc1Br | i
Cc1ccc(C(=O)COC(=O)CNS(=O)(=O)c2ccccc2)cc1[N+](=O)[O-] | i
COc1ccccc1NC(=O)Oc1ccc(C(C)=O)cc1 | i
CC(C)N1CC(C(=O)O)CC1=O (stereo unspecified) | 0.1
CCCc1nc2sc3c(SCC(=O)NCc4ccco4)ncnc3c2c2c1CCC2 | 12
Cc1csc2nc(CNS(=O)(=O)c3ccc4c(c3)CCCC4)cn12 | 2.6
Cc1ccc(C)n1-c1ncn[nH]1 | i
Cc1ccccc1OCC(=O)N/N=C/c1ccco1 | i

Some of the entries above in a different format:
> Cc1ccc(Cc2cncc(O)c2)cc1S(=O)(=O)O
- H5N1 CPE: 1.1
> COc1ccc(C(=O)N2CC(=O)N(CCc3ccccc3)C(=O)C2)cc1OC
- H5N1 CPE: i
> CSc1sc(C(=O)O)c(C)c1C(C)=O
- H5N1 CPE: i
> CCCCC(=O)Nc1ccc(NC(=O)C(C)C)cn1
- H5N1 CPE: 0.3

More compounds
SMILES | H5N1 CPE
COc1ccc2cc(CN(C(=O)Nc3ccccc3OC)C3CCCC3)c(=O)[nH]c2c1 | i
CCCCn1nnc(NC(=O)Cc2ccc(Cl)cc2)n1 | 0.2
Cn1c(CCNC(=O)c2ccccc2F)nnc1SCc1nc2ccccc2c(=O)[nH]1 | 1.5
CCCCOc1ccc(S(N)(=O)=O)cc1 | 0.4
CCN(CC)S(=O)(=O)c1ccc(C(=O)Nc2ccc3c(c2)OCCO3)cc1 | i
CC1=CC(C)(C)Nc2ccc(OC(=O)CN3C(=O)CCC3=O)cc21 | 3.1
Cc1ccc([N+](=O)[O-])cc1/C=N/Nc1nnnn1-c1ccccc1 | 0.2
CC(=O)Nc1nc(N2C(=O)c3ccccc3C2=O)n(-c2ccccc2)n1 | 0.2
O=C(NCCN1CCOCC1)[C@H](Cc1ccccc1)N1C(=O)c2ccccc2C1=O | i
Cc1nc2ccc(CCO)cc2s1 | 0.7

Nothing new here: three of the compounds above.
SMILES | H5N1 CPE
CC(=O)Nc1nc(N2C(=O)c3ccccc3C2=O)n(-c2ccccc2)n1 | 0.2
O=C(NCCN1CCOCC1)[C@H](Cc1ccccc1)N1C(=O)c2ccccc2C1=O | i
Cc1nc2ccc(CCO)cc2s1 | 0.7

Carrying on.
SMILES | H5N1 CPE
COc1ccc(CCN(C(=O)c2ccccc2)C2=CC3CCC(C2)N3C)cc1OC (stereo unspecified) | 0.2
O=C(Nc1nc2ccc(S(=O)(=O)N3CCCCC3)cc2s1)C1CCCO1 (stereo unspecified) | i
Cc1ccc(SC(c2ccccc2)C(Cn2cncn2)C(=O)c2ccccc2)cc1 (stereo unspecified) | 2.2
CC(c1nnc(SCC(=O)c2c(N)n(C)c(=O)n(C)c2=O)n1-c1ccc(Cl)cc1)N(C)C (stereo unspecified) | 1.2
Cc1nc2cc(C(F)(F)F)ccc2n1C1CCN(C(=O)N2CCOCC2)CC1 | 0.9
Cc1ccc(C(=O)Nc2ccc3cn[nH]c3c2)cc1S(=O)(=O)N1CCCCC1 | 0.4
Cn1ncc(Cl)c1C(=O)Nc1cccnc1 | 0.4
C/C(=N\OCC(=O)N/N=C/c1ccccc1O)c1cccs1 | 0.4
CCOC(=O)c1sc2nc(NC(=O)C3CCCCC3)sc2c1C | i
CCCc1nnc(SCC(=O)N2CCCCC2C)n1CCCOC (stereo unspecified) | i
Cc1cccc(NS(=O)(=O)c2ccccc2)n1 | 0.3
CC(=O)N1CCN(C(=O)CC2OC(=O)c3ccccc32)CC1 (stereo unspecified) | i
CCOCCCNC(=S)NNC(=O)CCn1nc(C)c(Br)c1C | 0.1
CCNC(=O)NC(=O)C(C)Sc1nc2ccccc2n1CC(C)C (stereo unspecified) | i
CC1(C)Cc2nc3sc4c(=O)n(CC(=O)NCc5ccccc5)cnc4c3cc2CO1 | i
CC1CCN(CCCCOc2ccc([N+](=O)[O-])cc2)CC1 | i
CCC1CCCCN1C(=O)c1cc2cc(Br)ccc2oc1=O (stereo unspecified) | 3.1
c1ccc(Sc2ncnc3c2oc2ccccc23)nc1 | i

Compound activity: PubChem BioAssay, SRMLSC

Not all compounds are listed (hit frequency here may not be typical).
